Vaccinia mCherry = qHTS for Stage-Specific Inhibitors of Vaccinia Orthopoxvirus: mCherry Reporter Primary qHTS. Vaccinia virus mCherry reporter infection, fluorescence; about a quarter of the inactives have no number. Potency, µM (highest dose often 36.5 µM), without a hit: top-dose activity change, negative = inhibition, actives largely listed as inhibitors. 0.63% of 310,000 active. AID 720579, 2013; active = well fitted inhibition curve with a large enough effect; inconclusive = small, poorly fitted or top-dose-only effect; inactive = no such curve, though single readings can be large or run the other way; tested in A549 cells; note: nearly all actives have a fitted effect of over 35% in size; inactives centre near -10
VACV Venus inh = qHTS for Stage-Specific Inhibitors of Vaccinia Orthopoxvirus: Venus Reporter Primary qHTS. Vaccinia virus Venus reporter expression, fluorescence. Potency, µM (titrated, usually from 36.5 µM), for the others: at the highest dose activity change, negative = inhibition, most hits filed as inhibitors. 0.46% of 330,000 active. AID 720580, 2013; active means well fitted inhibition curve with a large enough effect; inconclusive means small, poorly fitted or top-dose-only effect; inactive means no such curve, though single readings can be large or run the other way; tested in A549 cells; note: nearly all actives have a fitted effect of over 30% in size; inactives centre near -10
The depositor's hits bear a star; i = inactive; ? = inconclusive; · = no result given; [ ] = dose if it differs, or a comment. % is set by controls: 0 for no effect and ±100 for the full control effect; potency is the fitted concentration of half-maximal effect. Random draw from the library, and some 0.82% of all compounds hit somewhere here.

SMILES	Vaccinia mCherry	VACV Venus inh
CCCCN(CCCC)CCNC(=O)c1cn(CC)c2ccc(S(=O)(=O)N(C)C3CCCCC3)cc2c1=O	-18.0%	-13.8%
Cc1ccc(NC(=O)c2sc(C)nc2C)c(C)c1	-17.5%	-5.9%
CCOC(=O)CN1CC23C=CC(O2)C(C(=O)O)C3C1=O (centres undefined)	-7.3%	-3.8%
Cc1cccc(NC(=O)C2CCN(S(=O)(=O)c3ccc(F)cc3)CC2)c1C	3.1%	1.7%
Cc1ccc(C(=O)NCCCNC(=O)c2ccco2)cc1	-9.2%	-3.0%
CCCCOCCCNC(=O)COc1ccccc1	i	-6.1%
O=C(COC(=O)c1cccs1)NCCc1ccc(F)cc1	-15.7%	-2.0%
N#Cc1cc(-c2ccccc2)nc(N2CCNCC2)n1	i	-0.9%
Cc1cccc(OCC(=O)NC2CCCCCC2)c1C	-11.6%	-23.9%
Cc1ccc(C)c(NC2=NS(=O)(=O)c3ccccc32)c1	-11.4%	-7.5%
COC(=O)c1c(NS(=O)(=O)c2ccc(C)cc2)sc2c1CCC(C)C2 (centres undefined)	-10.7%	-11.0%
C/C(=N\N=C(c1ccccc1)c1ccccc1)c1cccs1	i	-0.6%
CCOc1ccc2c(c1)N(C(=O)CN1C(=O)CCC1=O)C(C)(C)C=C2C	·	-9.1%
CC(=O)Nc1ccc(C(=O)Cn2nnc3ccccc3c2=O)cc1	-8.2%	-7.4%
Cc1cc(C)cc(NC(=O)N2CCCCCCC2)c1	i	-0.9%
O=C(Nc1ccc(S(=O)(=O)N2CCCCC2)cc1)c1ccc(CN2CCc3ccccc3C2)cc1	·	?
O=C(OCC(=O)c1c[nH]c2ccccc12)c1cc(S(=O)(=O)N2CCOCC2)ccc1F	i	-10.8%
CC(C)(C)c1ccc(C(=O)NNc2ncnc3c2cnn3-c2ccccc2)cc1	-6.9%	-1.4%
O=C(COC(=O)c1ccc(F)cc1F)NCCNC(=O)COC(=O)c1ccc(F)cc1F	-13.0%	1.4%
Cc1cc(C(=O)Nc2ccon2)cs1	-18.7%	-7.1%
N/C(=N\OC(=O)c1cccc([N+](=O)[O-])c1)c1cccnc1	-14.4%	-12.3%
COC(=O)CC1=NC(=O)CS1	·	-12.4%
CCOc1cc(OCC)cc(C(=O)Nc2cccnc2)c1	-8.8%	-3.8%
Cc1cc(=O)n2[nH]c(NC(=O)c3cccc(Cl)c3)nc2n1	-13.1%	-20.8%
CCOC(=O)C1=C(COC(=O)c2cccs2)NC(=O)NC1C (centres undefined)	-22.3%	-20.1%
Cc1ccc(C)c(NC(=O)CN(C)C(=O)Cc2ccc(Cl)cc2Cl)c1	-17.4%	-12.6%
O=C(Nc1ccccc1Cl)c1cc(C2CCCN(S(=O)(=O)c3cccs3)C2)on1 (centres undefined)	-1.2%	-0.6%
CCC(C)[C@H](NC(=O)C1CCC(CNC(=O)[C@@H]2CCCN2C(=O)OC(C)(C)C)CC1)C(=O)O (some centres undefined)	-5.9%	-11.4%
CCCN1CCc2c(sc3nc(SCC)n(-c4ccc(OC)cc4)c(=O)c23)C1	i	-11.5%
CCOc1cccc(NC(=O)C2CC(=O)N(CC)C(=Nc3ccc(F)cc3)S2)c1 (centres undefined)	-9.0%	-6.2%
CC(C)(C)c1ccc(OCCC(=O)OCC(=O)NC2CCS(=O)(=O)C2)cc1 (centres undefined)	-8.4%	-5.9%
CCOC(=O)C1=C(c2ccccc2)O/C(=C(\C(=O)OC)C(F)(F)F)S1	?	-27.1%
O=C(Cc1c(Cl)cccc1Cl)OCC(=O)c1ccc[nH]1	-27.2%	-22.3%
Cc1cc(C)n2c(SCC(C)C)nnc2n1	-7.1%	-13.1%
O=C(c1ccc2c(=O)n(-c3ccccc3)c(=O)[nH]c2c1)N1CCN(Cc2cccs2)CC1	?	?
CCc1ccc(N(CC(=O)Nc2ccccc2C(=O)N2CCCC2)S(C)(=O)=O)cc1	-4.2%	-17.7%
O=C(NCCc1ccc(Cl)cc1)c1nnc(Cc2ccc(Cl)cc2Cl)o1	-16.7%	-16.3%
O=C(Nc1ncc(Cc2cccc(Cl)c2Cl)s1)C1CCCO1 (centres undefined)	i	-24.9%
CCN(c1ccccc1)S(=O)(=O)c1cccc(C(=O)NCc2cccnc2)c1	-16.3%	?
Cc1ccc(-c2ccnc(-n3ncc(C(=O)NC[C@@H]4CCCN5CCCC[C@H]45)c3C3CC3)n2)o1	i	-9.5%
Cn1c(C(=O)N2CCCC(C(=O)NCc3ccccc3)C2)cc2sccc21 (centres undefined)	i	-19.3%
CC(=O)CC(C)(C)NC(C)=S	-13.0%	-5.8%
Cc1ccc(NP(=O)(c2ccc(N(C)C)cc2NC(=O)c2cccs2)N2CCOCC2)cc1 (centres undefined)	-4.3%	-3.9%
O=c1c2c(nc3cc(-c4cccc(Cl)c4)[nH]n13)CCC2	-22.1%	-13.6%
O=C(Nc1ccc(Cl)c(S(=O)(=O)N2CCOCC2)c1)C1=NN(c2ccccc2)C(=O)CC1	-12.4%	-6.9%
CCn1c(SCC(=O)Nc2cc(C)on2)nnc1-c1ccco1	-7.0%	-23.9%
O=C1c2cccc3cc(Br)cc(c23)C(=O)N1Nc1ccc(Br)cc1	-14.6%	-12.8%
COc1cccc(C(=O)NN2CC(O)=C(c3nc(C)cs3)C2=N)c1	3.2%	-3.8%
Cc1cc(C)c2c(c1)cc(C)c1nnc(SCC(=O)Nc3cc(C)on3)n12	?	?
COc1ccc(/C=C(\C#N)C(=O)NCCCn2ccnc2)cc1	i	-9.1%
COc1ccccc1CNC(=O)C(=O)NCCC1CCCCN1S(=O)(=O)c1cccs1 (centres undefined)	?	?
O=C(/C=C/c1cccc(F)c1)c1ccc(N2CCOCC2)cc1	?	-11.3%
CO/N=C1\CCn2c1c(C)c1ccccc12	i	-20.0%
Cc1ccc(S(=O)(=O)NCC(=O)OCC(=O)NCc2ccc(F)cc2)cc1	-16.8%	-9.1%
CCOc1ccc([C@@H]2CC=C(C(=O)O)[C@H](c3ccc(Cl)cc3)N2S(=O)(=O)c2ccc(C)cc2)cc1	0.8%	-12.0%
CC(C)C(N)c1csc(NC(=O)Nc2cccc(C(F)(F)F)c2)n1 (centres undefined)	-8.0%	-23.8%
CC(=O)N1CCN(c2nc(CC(C)C)c3c(c2C#N)CCC3)CC1	-14.6%	-1.7%
CCCn1c(=O)c(C(=O)NCc2ccccc2Cl)c(O)c2ccccc21	i	-10.6%
COCC(=O)NCCc1ccc(S(N)(=O)=O)cc1	-27.2%	-7.4%
O=S(=O)(Cc1cc(NCc2ccccc2)nc(-c2ccncc2)n1)c1ccccc1	1.2%	-0.2%

An excerpt of these results, with two lines to a compound.
Values run as follows: Vaccinia mCherry	VACV Venus inh
- Cc1ccc(S(=O)(=O)NCC(=O)OCC(=O)NCc2ccc(F)cc2)cc1
  -16.8%	-9.1%
- CCCn1c(=O)c(C(=O)NCc2ccccc2Cl)c(O)c2ccccc21
  i	-10.6%
- CC(=O)N1CCN(c2nc(CC(C)C)c3c(c2C#N)CCC3)CC1
  -14.6%	-1.7%
- CC(C)C(N)c1csc(NC(=O)Nc2cccc(C(F)(F)F)c2)n1 (centres undefined)
  -8.0%	-23.8%
- COc1ccc(/C=C(\C#N)C(=O)NCCCn2ccnc2)cc1
  i	-9.1%
- COCC(=O)NCCc1ccc(S(N)(=O)=O)cc1
  -27.2%	-7.4%

More structures.
SMILES	Vaccinia mCherry	VACV Venus inh
COc1ccc(S(=O)(=O)N2CCN(C(=O)c3c(C)nn(-c4ccccc4)c3Cl)CC2)cc1	·	-28.7%
Cc1ccc(NC(=O)CSc2nc(=O)n(CCCN3CCOCC3)c3c2CCCC3)cc1F	-21.6%	-17.5%
CC1CCCCN1C(=O)CSc1nnc(Cc2ccccc2)n1C (centres undefined)	-7.0%	-6.0%
Cc1ccc(S(=O)(=O)Nc2cc(C)cc(CCNC=O)c2C)cc1	i	0.0%
Cc1ccc(NCc2cccn2-c2nnc(N3CCC(C(=O)NC(C)C)CC3)s2)cc1	-10.4%	-9.8%
CN1C(=O)C(CC(=O)NC2CCCCC2)N(C)C1=O (centres undefined)	-6.3%	-1.1%
CCOc1ccc(-c2cc(-c3nc(-c4cc(OC)c(OC)c(OC)c4)no3)[nH]n2)cc1Cl	-13.1%	-12.4%
COC(=O)c1sc2nc(C)c([N+](=O)[O-])c(C)c2c1N	i	-6.5%
C=CCCCCCCCCCCCC(O)CC(O)CO (centres undefined) (tested in a mixture with another compound)	-1.4%	-8.1%
CC(C)(C)C(=O)Nc1nnc(-c2ccncc2)o1	i	-6.8%
CCOC(=O)N1CCC(NC(=O)Cn2cc3c(n2)CCCCC3)CC1	-10.3%	-10.7%
CC(=O)Nc1ccc(NC(=O)c2csc([C@@H]3O[C@H](CO)[C@H](O)[C@H](O)[C@H]3O)n2)cc1	15.5%	2.8%
CC1(C)C2CC=C(/C=N/NC(=O)C3CC3)C1C2 (centres undefined)	-6.9%	-4.8%
CCCCCCC1CC(/C(C)=N\NC(N)=O)OC1=O (centres undefined)	-13.6%	-0.6%
COc1ccccc1NC(=O)c1sc2nc(C)c(C(=O)Nc3ccc(C)cc3C)c(-c3ccc(C)o3)c2c1N	-8.3%	-6.4%
Cc1ccc(S(=O)(=O)n2nccc2-c2c(-c3ccccc3)noc2C)cc1	-13.9%	-29.4%
CCn1cc(C(=O)NCC(C)C)c(=O)c2cc(F)c(N3CCN(C(=O)c4ccco4)CC3)cc21	-19.2%	-8.4%
COc1ccc(CC(=O)N2CC3(C)CC2CC(C)(C)C3)cc1 (centres undefined)	-25.2%	-8.4%
O=C(Nc1ccc(N2CCN(C(=O)c3ccco3)CC2)cc1)c1cccs1	i	-11.4%
COc1ccc(Cn2nnnc2C(c2ccccc2Cl)N2CCN(C3CCCC3)CC2)cc1 (centres undefined)	·	-15.9%
COc1ccc(C(C(=O)Nc2ccc(C(C)C)cc2)N(Cc2ccco2)C(=O)CC2NC(=O)NC2=O)cc1 (centres undefined)	-12.2%	-17.3%
Cc1c(Cc2ccccc2)c(=O)oc2cc(O)ccc12	-7.7%	-8.5%
COc1ccc(C(Nc2ccccc2)P(=O)(Oc2ccccc2)Oc2ccccc2)cc1 (centres undefined)	-11.1%	-2.8%
Cc1cc(=O)n(C(C)c2ccccc2)n1C(C)c1ccccc1 (centres undefined)	i	0.8%

Nothing new here: 2 of the compounds above.
SMILES	Vaccinia mCherry	VACV Venus inh
CC1(C)C2CC=C(/C=N/NC(=O)C3CC3)C1C2 (centres undefined)	-6.9%	-4.8%
CCCCCCC1CC(/C(C)=N\NC(N)=O)OC1=O (centres undefined)	-13.6%	-0.6%

Other records:
SMILES	Vaccinia mCherry	VACV Venus inh
COc1ccc(C)cc1S(=O)(=O)Nc1ccc(-n2c(C)nc3ccccc3c2=O)cc1	i	-14.0%
CCCCn1c2nc3ccccc3nc2c2c(=N)oc(C)nc21	-11.8%	-16.5%
CCCCN(CC)S(=O)(=O)N1CCC(C(=O)NCCCN2CCOCC2)CC1	-14.9%	-6.1%
CCCC(=O)NCc1ccccc1Cl	-17.4%	6.2%
COc1ccccc1CC(=O)Nc1ccc([N+](=O)[O-])cc1O	?	-26.4%
CCCOc1ccc(/C(O)=C2/C(=O)C(=O)N(c3cc(C)on3)C2c2ccc(C(=O)OC)cc2)cc1 (centres undefined)	-25.9%	-12.3%
CSc1ncnc2c1ncn2CCCN1CCN(Cc2cccc3ccccc23)CC1	?	-17.2%
O=C(COC(=O)CNC(=O)c1ccc([N+](=O)[O-])o1)Nc1ncc(Cl)cc1Cl	-1.1%	-23.7%
COc1cccc2c1C(=O)c1c(O)c3c(c(O)c1C2=O)C[C@](O)(C(C)=O)C[C@H]3O[C@@H]1C[C@@H](N)[C@@H](O)[C@@H](C)O1	43.5%[activator]	480.5%[activator]
C[C@@H](C(=O)NCc1ccccc1)[C@@H]1C[C@@]1(C)[C@@H](NC(=O)OCc1ccccc1)c1ccccc1	?	-29.9%
CCc1ccc(-c2n[nH]nc2C2=CC(=O)C[C@H](c3ccc(F)cc3)C2)cc1	?	?
CC(=O)Nc1ccc(C(=O)N(C)C(C(=O)Nc2ccc(C)cc2)c2ccccn2)cc1 (centres undefined)	-8.9%	-0.9%
COc1ccc(C(=O)Nc2ccc(C(=O)N3CCOCC3)cc2)cc1OC	6.9%	11.4%
CS(=O)(=O)N1Cc2ccccc2CC1C(=O)O (centres undefined)	i	-0.4%
CC(C)CC(=O)Nc1nc(-c2ccc(S(=O)(=O)N3CCOCC3)cc2)cs1	-1.5%	-7.8%
CCn1c(O)c(N=NC2=NC(=O)CS2)c2cc(C)ccc21	·	?
O=C(CN1N=C(c2ccc(Cl)cc2)CCC1=O)NCCN1CCc2ccccc2C1	-15.8%	-17.6%
O=C(NNC(=O)c1ccccc1F)c1ccco1	-11.8%	-12.4%
Cn1c(SCC(=O)N/N=C/c2ccc([N+](=O)[O-])s2)nnc1-c1ccccc1	28.2µM*	?
Cc1noc(C)c1C(=O)NCc1ccccc1	·	-13.0%
Cc1ccc2c(c1)c1c3n2CCNC3CCC1 (centres undefined)	-21.4%	-12.1%
COc1cccc(C(=O)N2CCN(C3CCC(c4ccccc4)CC3)CC2)c1OC (centres undefined)	·	-22.7%
COc1ccccc1N(CC(N)=O)S(=O)(=O)c1ccc(C)cc1	-1.5%	-9.7%
CCn1c(O)c(/C=C2\C=NN=C2c2ccccc2)sc1=S	?	?
COc1cc(CNCCSc2nnnn2C)cc(Br)c1OCc1ccccc1F	·	-29.4%
Cc1c(C(=O)N2CCN(c3ccccc3)CC2)oc2c(F)cccc12	-8.0%	-4.8%

Compound activity: PubChem, National Center for Advancing Translational Sciences (NCATS)
